PrP 5UTR inh = suppresses PrP 5' UTR mRNA reporter expression. cell-based PrP 5' UTR mRNA reporter, plate reader. inhibition, % (concentration not given with the values). 340,000 compounds, 0.35% hits;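 active = every replicate at 50% or more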;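 also: 0 = median of the neutral control wells; tested in H4 reporter cells; numbers are from one replicate; inactives centre near -14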
BJeLR viability = BJeLR cell viability loss; BJeLR (HRASV12) viability, CellTiter-Glo ATP luminescence, 48 h; reference of the scale not given here; inhibition, % (test concentration not listed); 300,000 compounds, 0.17% hits; AID 1554;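 active = replicate mean above 50%; inconclusive = above 50% but judged a plate artefact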;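 also: 50 nL library stock added to about 25 µL; numbers are from one replicate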
RN4220 kill = S. aureus RN4220 growth inhibition; inhibition, % (concentration not given with the values); 330,000 compounds, 0.33% hits; OD600, 16 h;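 active = z-score of -3 or lower and OD600 up to 0.18 on both plates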;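 also: plate controls were untreated cells for no effect and reference antibiotic for full effect; stock transfer was 100 nL into about 80 µL; one replicate is shown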
Autofluor counter = counter-screen for toxin protease inhibitors: compound fluorescence; compound autofluorescence counterscreen, microsphere flow cytometry; stronger effect = higher value; fluorescence intensity (test concentration not listed); 360,000 compounds, 3.1% hits; AID 624483;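 active = at least 3 SD above the mean of all compounds, about 16000 in these data; inconclusive = too few beads counted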;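 also: 100 nL of 1 mM stock went into each well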
Sa ugtP lethal = kills S. aureus RN4220 lacking UgtP; S. aureus RN4220 ugtP deletion, OD600 growth, 16 h; some inactives read as strong as hits; growth inhibition, % (concentration not given with the values); 330,000 compounds, 0.54% hits;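 active = z-score under -3 and OD600 up to 0.15 on both plates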;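 also: plate controls were untreated wells for no effect and antibiotic for full effect; wells of about 80 µL received 100 nL stock; the first replicate is given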
Mtb hypoxia inh = reduces hypoxia-regulated biosensor signal in M. tuberculosis; 300,000 compounds, 0.1% hits; fluorescence inhibition, % (concentration not given with the values); M. tuberculosis hypoxia-regulated fluorescent reporter, fluorescence;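 active = 35 to 45% if threefold the growth effect, above 45% if 1.5-fold the growth effect; inactive = the rest, general growth blockers included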;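 also: wells of about 50 µL received 100 nL stock; 0% = vehicle wells and 100% = reference inhibitor wells; whole bacteria with a GFP reporter of the hypoxia response; strong numbers were not always called active; many hits fall short of the cut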
Mtb hypoxia inh growth = further read-out of Mtb hypoxia inh, marked with its call; growth inhibition, %; measured here: M. tuberculosis growth (absorbance);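 0% = vehicle and 100% = reference antibiotic; read after six days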
Active calls of the source: *; ? = inconclusive; . = no result given; & = joins results of further samples.

SMILES | PrP 5UTR inh | BJeLR viability | RN4220 kill | Autofluor counter | Sa ugtP lethal | Mtb hypoxia inh | Mtb hypoxia inh growth
Cc1cc(S(=O)(=O)NC2CC(C)(C)NC(C)(C)C2)c(Cl)cc1Cl | -71 | 9 | -2.9 | 3696 | 7 | 3 | 4
O=C(c1cc(-c2ccccc2)nc2ccccc12)N1CCC2(CC1)OCCO2 | -10 | -3 | 1.4 | 23724* | -2 | 1 | 2
CS(=O)(=O)ON=C1CCN(S(=O)(=O)c2ccccc2)CC1 | -16 | -1 | 1.3 | 2190 | 4 | 0 | -3
O=C(NCC(=O)N1CC=C(c2ccccc2)CC1)c1ccc(OC(F)F)cc1 | -21 | . | 3.8 | 5237 | 8 | 12 | 6
Cc1ccccc1C(=O)c1ccc2c(c1)n(C)c(=O)n2C | . | 2 | 1.0 | 11025 | 0 | 8 | 9
CCOc1cc(CNn2cnnc2)cc(Cl)c1OCC(=O)NC(C)(C)C | 16 | -4 | . | 3300 | . | . | .
O=C(NNC(=O)C1CC=CCC1)c1ccccc1O (stereo not drawn) | -8 | -14 | 5.6 | 3465 | -2 | 1 | 2
CCSC(=Nc1ccccc1)Nc1ccccc1 | -13 | 2 | 4.8 | 4922 | 6 | 0 | -2
Oc1c(Br)cc(Br)cc1CNc1nccs1 | -32 | -1 | 2.8 | 3420 | 40 | -1 | 2
CCCCn1nnnc1NCc1cc(OC)c(OC)cc1OC | -26 | 1 | 4.8 | 16650* | 9 | 7 | 7
O=C(COC(=O)c1ccc(Br)o1)NC1CCCCC1 | -14 | -17 | 0.8 | 4150 | 4 | 4 | 1
CCOC(=O)N1CCC(NC(=O)c2ccc(CO)c(C(=O)NC3CCN(C(=O)OCC)CC3)c2)CC1 | -22 | -9 | 5.4 | 2169 | 6 | 12 | 0
COc1cccc(OCc2nc3ccccc3c(=O)n2N)c1 | -38 | . | 0.1 | 10812 | -1 | 1 | -1
CCn1ncc(/C=N/NS(=O)(=O)c2ccc(Cl)cc2)c1C | -17 | -5 | . | 5648 | . | . | .
CC(=O)n1cc(C2C=C(C(=O)N3CCOCC3)OC(OCCCCO)C2)c2ccccc21 (stereo not drawn) | . | . | 7.0&1.6 | . | 3&-13 | 5&1 | 4&6
Cc1cc(C(=O)N2CCCC(CNS(=O)(=O)c3cccs3)C2)nn1C (stereo not drawn) | -20 | -3 | 2.7 | 4526 | 0 | 13 | -3
COc1ccc(OC)c2c1cc(C(=O)N[C@H](C(=O)N1CCC[C@H]1C(=O)O)C(C)C)n2C | -6 | -2 | 2.6 | 3961 | 8 | . | .
COc1ccccc1OCC(=O)N1CCC2(CC1)CC(=O)c1ccccc1O2 | -1 | 7 | 5.8 | ? | 0 | 3 | 5
COc1ccc(OC)c(S(=O)(=O)NN=Cc2c[nH]c3ccccc23)c1 | . | . | 2.9 | . | -1 | 9 | -3
COc1ccc(CCC(C)NCc2ccccc2OC)cc1 (stereo not drawn) | -14 | 2 | 2.7 | 3822 | 6 | 5 | 9

Part of the list above, reduced to Sa ugtP lethal and BJeLR viability:
canonical_smiles	Sa ugtP lethal	BJeLR viability
CCOc1cc(CNn2cnnc2)cc(Cl)c1OCC(=O)NC(C)(C)C	.	-4
O=C(NNC(=O)C1CC=CCC1)c1ccccc1O (stereo not drawn)	-2	-14

The list goes on.
SMILES | PrP 5UTR inh | BJeLR viability | RN4220 kill | Autofluor counter | Sa ugtP lethal | Mtb hypoxia inh | Mtb hypoxia inh growth
CN(N=Cc1cc(Br)cc(Br)c1O)c1ccccc1 | . | . | -1.9 | . | 44 | 8 | 0
O=C(NCCC1=CCCCC1)C1CCC(CNc2nc(=S)[nH]c3ccccc23)CC1 (stereo not drawn) | -2 | 9 | -3.8 | 3782 | 1 | -14 | 0
Cc1cc(NC(=O)CSc2ncnc3sc(C)c(C)c23)no1 | -18 | 0 | -3.7 | 4154 | 6 | 10 | 7
CCOP(=O)(CN(CC)CCNP(=O)(OCC)OCC)OCC | -18 | -6 | -0.9 | 4609 | 3 | . | .
CCCCCn1c(=S)[nH]c2cc(C(=O)N3CCN(C(=O)OCC)CC3)ccc2c1=O | -1 | -9 | 1.8 | 5765 | -4 | -12 | 2
COc1ccc(CCNC(=O)COC(=O)c2ccc(C)s2)cc1OC | -5 | . | -2.4 | 5558 | -2 | 5 | 13
COc1ccc(-c2cnn(-c3ccccc3)c2N)cc1OC | -16 | -8 | 4.7 | 3454 | 14 | . | .
CCOC(=O)C1=C(C)NC(=O)NC1c1ccc(Br)o1 (stereo not drawn) | 0 | -12 | 7.4 | 2443 | 1 | 6 | 6
Cc1cc(OCC(=O)NCC(c2ccc(F)cc2)N2CCOCC2)ccc1Cl (stereo not drawn) | -4 | . | 10 | 5719 | 1 | -3 | 2
O=C(COC(=O)c1cc(S(=O)(=O)N2CCOCC2)ccc1Cl)NCCc1ccccc1 | -11 | . | 4.6 | 3895 | 3 | 9 | 3
NC(=O)c1cc(N2CC2)c([N+](=O)[O-])cc1[N+](=O)[O-] | 0 | 1 | 3.2 | 4746 | -3 | -3 | 2
NC(=O)CC(NC(=O)Cc1ccc(Cl)cc1)c1ccc(NCCCN2CCCC2=O)c([N+](=O)[O-])c1 (stereo not drawn) | 3 | -8 | 3.9 | 3967 | -1 | 9 | 11
Cc1nn(-c2ccccc2)c2nc(-c3cccs3)cc(C(=O)NN)c12 | -14 | 5 | -6.1 | 4542 | -9 | -2 | 0
C=C1CCN([C@@H](CC(C)C)C(=O)NCCCc2ccccc2)S(=O)(=O)c2ccccc21 | -14 | 5 | . | 4301 | . | . | .
CCc1cc(C(=O)N2CCCC(C(=O)c3ccc(Oc4ccccc4)cc3)C2)n(C)n1 (stereo not drawn) | -25 | 3 | 1.5 | 5401 | 6 | 13 | 9
O=C(NCCC(=O)N1CCNC1=O)OCc1ccccc1 | -23 | 2 | 8.3 | 13656 | -2 | 16 | 1
O=S(=O)(NCCc1ccccc1)c1ccc(-n2cnnn2)cc1 | -19 | 1 | 4.6 | 3071 | 10 | 4 | 0
Cn1c(=O)c2c([nH]c(=S)n2CCCc2ccccc2)n(C)c1=O | -35 | -2 | 3.6 | 3577 | 6 | 2 | 0
CC1CCCCN1C(=S)Nc1ccc2nc3n(c(=O)c2c1)CCCCC3 (stereo not drawn) | -7 | 2 | 3.3 | 2511 | 1 | 11 | 5
COc1ccc(C(C)=O)c(OC(=O)c2ccco2)c1 | -14 | 1 | 1.7 | 4178 | 3 | . | .
CN1CCN(c2ccc(CNS(=O)(=O)Cc3cccc(C(F)(F)F)c3)cc2)CC1 | . | 13 | 4.2 | 3663 | 3 | -4 | -1
CN1C(CC(=O)c2ccccc2)CCCC1CC(O)c1ccccc1 (stereo not drawn) | -16 | 5 | 8.1&1.1 | 5729 | 3&-8 | 2 | 4
C/C(=N\NC(=O)CNc1cccc(Cl)c1C)c1cccs1 | -25 | 9 | . | 2096 | . | . | .
CNC(=O)CN1C(=O)COc2ccc(S(=O)(=O)N3CCCCCC3)cc21 | 1 | 0 | 4.3 | 5236 | 5 | 12 | 5
COc1ccc(/C=C/C(=O)NCCCc2ccccc2)cc1OC | -16 | 0 | -0.8 | 2599 | 8 | -2 | 6
C=CCn1c2ccccc2c2nnc(SCCN3CCCCC3)nc21 | -11 | -6 | -1.6 | 3767 | 11 | 9 | -1
COc1ccc(O)c(C(=O)CC(=O)c2cccnc2)c1 | -83 | . | 1.4 | ? | 2 | 10 | 10
O=C(NCC(c1cccs1)N1CCOCC1)c1cc(-c2ccccn2)nc2ccccc12 (stereo not drawn) | -51 | 4 | 0.3 | 4745 | -8 | -6 | 2
Cc1ccnc(NC(=O)CN(C)S(=O)(=O)c2cccc3nsnc23)c1 | -4 | -23 | 7.3 | 8681 | 2 | -3 | 3
COc1ccc(NC(=O)C2C(c3ccccc3)C2(Cl)Cl)cc1 (stereo not drawn) | -14 | -1 | 1.9 | 5041 | 7 | 0 | 6
Cc1nc(CCN2C(=O)c3ccccc3C2=O)n[nH]1 | -16 | -16 | 4.7 | 8569 | 3 | 8 | 5
COc1cc(/C=N/NC(=O)c2cc3c(ccc4ccccc43)o2)cc(OC)c1O | -15 | 1 | . | 5542 | . | . | .
COc1ccc([N+](=O)[O-])cc1NC(=S)NC(C)=O | -2 | -5 | 3.1 | 4343 | 4 | 7 | 2
COc1cccc(C(c2nnnn2Cc2ccccc2)N2CCN(C(=O)c3ccco3)CC2)c1OC (stereo not drawn) | -11 | -7 | 3.7 | 2489 | 1 | . | .
COc1ccc(CCNC(=O)COc2ccc3c(C)cc(=O)oc3c2)cc1OC | -22 | 4 | 2.1 | 5336 | 14 | 4 | 8
Cc1c(Cl)cccc1NS(=O)(=O)c1cn(C)c(=O)n(C)c1=O | -36 | -17 | -11 | 5687 | -5 | 16 | 8
COc1ccc(CCCc2nnc(SCc3nc4ccccc4c(=O)[nH]3)n2C)cc1C | -11 | -2 | 7.0 | 2031 | 0 | -1 | -3
O=C(CSc1nnc(-c2ccco2)n1Cc1ccccc1)OC1CCCCC1 | -50 | 1 | 0.6 | 9408 | -8 | -91 | -15
Cc1nnc(NC(=O)CCC(=O)NCc2cccs2)s1 | -12 | -6 | -3.8 | ? | -5 | -1 | -2
CCn1c(=O)n(CC)c2cc(S(=O)(=O)N3CCc4ccccc43)ccc21 | -3 | 7 | 2.8 | 9551 | -4 | 6 | 3
CC(=O)Nc1cc2cc(NS(=O)(=O)c3ccc(Cl)cc3)ccc2oc1=O | -14 | 10 | 6.2 | 3245 | 1 | 11 | 2
COC(=O)Cc1ccc(NC(=S)NCCCN2CCOCC2)cc1 | -2 | 1 | 3.4 | 4660 | 5 | 8 | 10
COc1nc(N/N=C/c2cc3c(cc2Br)OCO3)nc(N2CCOCC2)n1 | -4 | -2 | . | 7066 | . | . | .
CC(C)NC(=O)CSc1nc2ccccc2n1-c1ccccc1 | -40 | 0 | 3.7 | 22704* | 1 | 4 | 8
Cc1cccc(C(=O)O/N=C(\N)c2ccc(Br)cc2)c1 | -64 | -7 | . | 3527 | . | . | .
O=C(CN1CCCC1)N1CCCc2c1c(=O)oc1ccc(OCc3ccccc3)cc21 | -7 | -2 | -2.9 | 6171 | -9 | -1 | 27
O=C(NCCN1CCCC1)C1CCN(S(=O)(=O)N2CCC3(CC2)OCCO3)CC1 | -20 | 7 | -2.2 | 10093 | -7 | -1 | -1
COc1ccc(-c2cc(C(F)F)n3ncc(C(=O)N4CCCCC4)c3n2)cc1 | 6 | -2 | 4.4 | 4165 | -5 | 16 | 8
O=C(CCNC(=O)c1ccc(Br)cc1)NCCCSc1ccccc1 | -13 | 0 | 1.4 | ? | 5 | 8 | 6
COc1cc(NC(=O)COC(=O)c2ccc(C)c(S(=O)(=O)N3CCCCC3)c2)c(C)cc1[N+](=O)[O-] | -15 | 11 | 5.6 | 9586 | 16 | 9 | 10
Cc1ccccc1C(=O)Nc1nnc(-c2ccc(F)cc2)o1 | 7 | 1 | 20 | 5439 | 16 | -2 | 5
C/C=C(\C)C(=O)NCCN1C2=NC[C@H](C(C)C)N2C[C@H]1Cc1ccc(O)cc1 | -8 | 1 | . | 4170 | . | . | .
Cc1ccc2oc(=O)cc(CN3CCN(Cc4ccccc4)CC3)c2c1 | -13 | -5 | 2.3 | 3892 | 8 | -5 | -1
Cc1ccc(NC(=O)CSc2nnc(CNC(=O)c3ccco3)n2C)cc1 | -9 | -5 | 2.2 | 6105 | 2 | -5 | 8
CCN1CCCC1CNC(=O)c1c(O)c2c([nH]c1=O)CCCC2 (stereo not drawn) | -6 | 2 | -0.4 | 4838 | -2 | . | .
O=c1c([N+](=O)[O-])c(N2CCCC2)c2ccccc2n1-c1ccccc1 | -13 | 4 | 8.3 | 4105 | 4 | 12 | 8
CC(Cc1cccs1)NC(=O)Nc1ccc(Cl)cc1 (stereo not drawn) | -56 | -2 | . | 3405 | . | . | .
O=C(Cc1ccon1)c1ccc(O)cc1O | -17 | 9 | 2.9 | 3616 | 2 | -2 | 2

3 compounds from above, ordered by molecular weight, descending.
SMILES | PrP 5UTR inh | BJeLR viability | RN4220 kill | Autofluor counter | Sa ugtP lethal | Mtb hypoxia inh | Mtb hypoxia inh growth
O=C(CN1CCCC1)N1CCCc2c1c(=O)oc1ccc(OCc3ccccc3)cc21 | -7 | -2 | -2.9 | 6171 | -9 | -1 | 27
COc1ccc(-c2cc(C(F)F)n3ncc(C(=O)N4CCCCC4)c3n2)cc1 | 6 | -2 | 4.4 | 4165 | -5 | 16 | 8
COC(=O)Cc1ccc(NC(=S)NCCCN2CCOCC2)cc1 | -2 | 1 | 3.4 | 4660 | 5 | 8 | 10
